Rango complex inh: qHTS Assay for Inhibitors of Rango (Ran-regulated importin-beta cargo) - Importin beta complex formation | Importin subunit beta-1 (Homo sapiens), Q14974 | Potency, µM (top dose mostly 92.2 µM), without a hit: at the highest dose inhibition of complex formation | 340,000 tested, 0.031% active | Rango CFP/YFP FRET sensor + importin beta, 45 min; active = rising FRET ratio curve, often small or poorly fitted; inconclusive = mostly compound fluorescence or quenching in the first reads; inactive = flat curves in all reads;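 further: potency means the concentration at half of the fitted maximal effect; 0% = DMSO wells and 100% = buffer wells lacking importin beta; nearly all actives have a fitted effect of over 15% in size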
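Inhibition scored from the CFP 486 nm/YFP 530 nm FRET ratio 45 min after adding 0.125 microM importin beta to 50 nM Rango biosensor preincubated 5 min with compound (room temperature, PBS with DTT, Tween-20, BSA). No-importin wells as positive control.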
miR-21 reporter: qHTS Assay for Modulators of miRNAs and/orActivators of miR-21 | Potency, µM (highest dose often 38.3 µM), for the others: at the top dose reporter change, positive = more light | HeLa miR-21 FLuc reporter, luciferase, 48 h | 340,000 tested, under 10 active; active = well fitted rising curve with a large enough effect; inconclusive = small, poorly fitted or top-dose-only effect; inactive = no such curve, though single readings can be large or run the other way;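 further: % of control where 0% means no effect; miR-21 action dims this reporter so a rising signal means less miR-21 action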
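Using DMEM plus 10% FBS, HeLa miR-21-FLuc cells are incubated with test compounds (final up to about 40uM) for 48 hours; firefly luciferase signal is then imaged following reagent-mediated lysis.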
Rango dissoc inh: qHTS Assay for Inhibitors of RanGTP induced Rango (Ran-regulated importin-beta cargo) - Importin beta complex dissociation. Snurportin-1 (Homo sapiens) + GTP-binding nuclear protein Ran (Homo sapiens) + Importin …. Biochemical FRET Rango-importin beta, RanGTP-induced dissociation. Potency, µM (series often up to 46.1 µM), without a hit: top-dose activity change, negative = inhibition. 340,000 tested, 0.071% active. AID 540253, 2011; active means falling FRET ratio curve, often poorly fitted, with flat reads before Ran was added; inconclusive means other falling curves, or compound fluorescence or quenching; inactive means flat or rising ratio curve;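 further: potency means the concentration at half of the fitted maximal effect; % of control where 0% means no effect; nearly all actives have a fitted effect of over 45% in size; -100% = wells without RanGTP and RCC1; the record marks most hits as doubtful in a second field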
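Compounds sat 5 min at room temperature with 0.1 uM Rango biosensor plus 0.25 uM importin beta, then FRET pre-read. RanGTP-RCC1 (0.6 uM Ran, 2mM GTP, 0.2 uM RCC1) added for 45 min, and the CFP/YFP post-read measured blocked complex dissociation.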
GLA inh pH 4.5: qHTS Assay for Inhibitors of Human alpha-Galactosidase at pH 4.5 | Alpha-galactosidase A (Homo sapiens), P06280 | purified enzyme, 4-MU-alpha-Gal fluorescence, pH 4.5 | activity change, negative = inhibition, % at 105 µM | 230,000 tested, under 10 active | AID 1467, 2008; inconclusive = small, poorly fitted or top-dose-only inhibition, or a rising curve; inactive = flat fitted curve, though single readings scatter; no compound was filed as active;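 further: 0% = full activity with enzyme and -100% = basal without enzyme; dose as in the result columns while the protocol names 77 µM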
Target sequence (P06280 whole entry, looked up): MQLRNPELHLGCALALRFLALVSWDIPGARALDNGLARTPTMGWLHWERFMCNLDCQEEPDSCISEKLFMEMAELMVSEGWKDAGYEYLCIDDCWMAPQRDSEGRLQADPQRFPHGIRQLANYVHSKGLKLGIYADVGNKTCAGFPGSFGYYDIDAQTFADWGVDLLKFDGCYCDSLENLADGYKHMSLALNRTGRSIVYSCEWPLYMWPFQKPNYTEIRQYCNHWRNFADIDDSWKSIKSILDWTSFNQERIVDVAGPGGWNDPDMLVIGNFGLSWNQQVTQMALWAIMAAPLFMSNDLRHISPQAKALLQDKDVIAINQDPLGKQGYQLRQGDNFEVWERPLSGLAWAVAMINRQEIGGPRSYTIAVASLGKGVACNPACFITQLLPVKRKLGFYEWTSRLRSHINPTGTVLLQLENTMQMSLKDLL
* marks the source's active call; other numbers are inactive results; ? = inconclusive; · = not tested or not shown; & = joins results of further samples; [ ] = dose if it differs, or a comment. An excerpt, so the mix of outcomes need not match the whole.

SMILES	Rango complex inh	miR-21 reporter	Rango dissoc inh	GLA inh pH 4.5
Cc1cccc(N2CN=c3s/c(=C\c4ccncc4)c(=O)n3C2)c1	1.3%	-10.4%	3.6%	4.3
COc1ccc(S(=O)(=O)N2CCCC2CNC(=O)c2cccc(OC)c2)cc1 (centres undefined)	-3.6%	·	10.0%	·
CC(NC(=O)C(=O)N/N=C\c1cccc([N+](=O)[O-])c1)c1ccccc1 (centres undefined)	-3.7%	1.1%	-6.6%	-23.0
O=C1c2ccccc2C(=O)N1Cc1cc(-c2ccccc2)no1	2.7%	-3.9%	1.6%	0.1
COc1ccc(NC2CCCN(C(=O)c3csc(C(C)C)n3)C2)cc1OC (centres undefined)	-1.8%	-3.4%	-11.5%	·
CC(=O)c1ccc(-c2cccc(-c3nc4ccccn4c3NC3CCCCC3)c2)cc1	?	·	13.7%	·
OCC1OC(n2cnc3c(NC4CCCC4)ncnc32)C(O)C1O (centres undefined)	-1.3%	·	10.5%	·
Cc1ccc(S(=O)(=O)N2CCC(C(=O)N3CCC(C(=O)NCc4cccnc4)CC3)CC2)cc1	10.7%	-5.0%	-10.9%	3.9
COCCC(=O)N1CCC(n2nccc2NC(=O)c2ccccc2C)CC1	0.6%	-3.5%	-11.5%	·
COc1cc(OC)c(NC(=O)c2ccc3c(SCC(=O)O)c4c(nc3c2)CCCC4)cc1Cl	0.2%	-14.5%	-12.3%	-1.3
Oc1cc2c(cc1CN1CCN(c3cccc(C(F)(F)F)c3)CC1)CCC2	9.7%	-1.8%	19.8%	-6.9
CC(=O)c1ccc(-c2cccc([C@H]3[C@@H]4C=CC[C@@H](C)[C@@H]4C(=O)N3Cc3ccccc3)c2)cc1	-2.7%	·	-12.8%	-4.1
CC(C)Cc1ccc(C(C)C(=O)Nc2ccccc2O)cc1 (centres undefined)	0.4%	?	2.5%	-4.8
Clc1ccc(OCCn2ccnc2)c(Br)c1	-2.7%	-5.8%	8.1%	-19.4
COc1ccc(C(=O)NN=C(Cc2ccccc2)Cc2ccccc2)cc1OC	5.7%	17.4%	-1.7%	-16.5
Cc1ccc(C(=O)CCS(=O)(=O)c2ccc(Cl)cc2)cc1	2.9%	-1.1%	13.8%	·
COc1ccc(N2CC(C(=O)OCC(=O)Nc3cccc(C)c3)CC2=O)cc1 (centres undefined)	-1.1%	-0.2%	3.0%	·
CCOC(=O)Cn1nc(C)c(NC(=O)COc2ccc(C)c(C)c2)c1C	0.9%	0.8%&2.7%	-12.3%	6.8
COc1cccc(NC(=O)C2CCCN2C(=O)OCc2ccccc2)c1 (centres undefined)	3.1%	-8.3%	-0.8%	0.4
Cc1ccc(C(=O)Nc2ccccc2[N+](=O)[O-])cc1S(=O)(=O)N1CCOCC1	-0.4%	-18.7%	-1.6%	·
CN(C)c1ccc(NC(=S)NC(=O)/C=C/c2ccc(Cl)cc2)cc1	-1.2%	-56.6%	-6.5%	-2.2
O=C(N/C(=C/c1cccc([N+](=O)[O-])c1)C(=O)N1CCCCCC1)c1ccco1	-4.7%	-3.6%	20.0%	·
Cc1ccc(S(=O)(=O)N2CCN(C(=O)C3CCCO3)CC2)cc1 (centres undefined)	1.0%	0.7%	11.6%	·
CCCCN(S(=O)(=O)c1ccccc1)S(=O)(=O)c1ccccc1	-0.7%	4.8%	-6.1%	·
S=c1[nH]nc(-c2ccncc2)n1/N=C/c1cccc2ccccc12	·	-1.1%	·	6.0

Ordered by heavy-atom count (low to high): some entries from above.
SMILES	Rango complex inh	miR-21 reporter	Rango dissoc inh	GLA inh pH 4.5
Clc1ccc(OCCn2ccnc2)c(Br)c1	-2.7%	-5.8%	8.1%	-19.4
Cc1ccc(S(=O)(=O)N2CCN(C(=O)C3CCCO3)CC2)cc1 (centres undefined)	1.0%	0.7%	11.6%	·
CN(C)c1ccc(NC(=S)NC(=O)/C=C/c2ccc(Cl)cc2)cc1	-1.2%	-56.6%	-6.5%	-2.2
CCOC(=O)Cn1nc(C)c(NC(=O)COc2ccc(C)c(C)c2)c1C	0.9%	0.8%&2.7%	-12.3%	6.8
Oc1cc2c(cc1CN1CCN(c3cccc(C(F)(F)F)c3)CC1)CCC2	9.7%	-1.8%	19.8%	-6.9
CC(=O)c1ccc(-c2cccc([C@H]3[C@@H]4C=CC[C@@H](C)[C@@H]4C(=O)N3Cc3ccccc3)c2)cc1	-2.7%	·	-12.8%	-4.1

The list continues.
SMILES	Rango complex inh	miR-21 reporter	Rango dissoc inh	GLA inh pH 4.5
Cc1ccc(NC(=O)c2oc(=O)c3ccccc3c2-c2ccccc2)c(C)c1	-0.5%	-2.1%	-0.4%	-2.1
COc1ccc(-n2c(=S)[nH]c3cc(C(=O)NCc4cccnc4)ccc3c2=O)c(OC)c1	-1.3%	5.0%	16.3%	·
CCN(CC)S(=O)(=O)c1ccc2nnn(O)c2c1	4.5%	-0.1%	-13.3%	3.0
CC(NC(=O)CN(c1ccc(F)cc1)S(C)(=O)=O)c1ccccc1 (centres undefined)	-4.6%	1.9%	-1.8%	·
O=C(O)c1nn2c(c1Br)NC(c1ccccc1)CC2C(F)(F)F (centres undefined)	3.3%	-5.8%	5.0%	-2.7
CCOc1cc(/C=C2\COc3ccccc3C2=O)ccc1OCC(=O)N(C)C	3.1%	?	-14.5%	·
Cc1ccc(NC(=S)NNC(=O)Cn2nc([N+](=O)[O-])cc2C)cc1	4.9%	-3.5%	-4.2%	2.1
Clc1cc(NC2CCCCC2)ncn1	-2.1%	-13.4%	14.2%	·
CCN(CC)c1ccc(C(=S)NCc2ccccc2)cc1	-1.2%	-28.7%	27.3%	-3.1
Cc1ccc(S(=O)(=O)Nc2ccccc2F)cc1C(=O)OC(C)C(=O)N1CCOCC1 (centres undefined)	-2.2%	·	0.4%	·
CC1(C)CC(=O)c2c(O)c(-c3ccccc3)c(=O)n(-c3ccccc3)c2C1	-0.1%	-9.6%	-7.4%	-1.3
Cc1nn(C(C)C(=O)NCc2cccs2)c(C)c1[N+](=O)[O-] (centres undefined)	-1.0%	-3.7%	-5.2%	-5.3
O=C(COC(=O)C1(c2ccc(Cl)cc2)CCCC1)NC1CCS(=O)(=O)C1 (centres undefined)	2.3%	-2.2%	-7.3%	-0.3
CC(C)N1CCN(S(=O)(=O)c2ccccc2)CC1	3.9%	7.0%	-5.3%	·
O=Nc1c(O)n(Cc2ccccc2)c2ccccc12	1.9%	1.7%	-1.3%	-3.5
COc1nc(-c2ccc(C)cc2)ccc1-c1noc(-c2ccco2)n1	?	-35.9%	0.5%	-1.4
CCOC(=O)c1[nH]nc(C(=O)c2ccc(Br)cc2)c1O	-0.6%	-32.2%	-4.0%	2.7
O=C(NCc1cnn(-c2ccc(F)cc2)c1)C1CCC(=O)N(C2CC2)C1 (centres undefined)	1.5%	2.0%	-1.0%	·
CCOc1ccc(NC(=O)C2CC(=O)OC2c2ccccc2)cc1 (centres undefined)	-3.2%	-2.6%	9.7%	-3.4
Cc1ccc(NC(=O)CSc2ncccn2)cc1F	-1.1%	0.6%	-8.2%	-1.2
CCSC1=C(C#N)C(c2ccc(Cl)cc2)C2=C(CCCC2=O)N1 (centres undefined)	0.0%	13.8%	-15.3%	-12.1
COc1ccc(CN2C=C3C(=O)C(C)(OC(=O)CCc4ccccc4)C(=O)C=C3C=C2c2ccc(C#N)cc2)cc1 (centres undefined)	?	-5.1%	?	4.7&-2.9
CC(C)(CO)N=Cc1c(O)[nH]c2ccccc12	-0.1%	-0.8%	12.1%	3.1
COc1cccc(NC(=S)/C(=C(\[O-])c2ccc([N+](=O)[O-])cc2)[n+]2ccccc2)c1	-1.7%	-21.5%	18.9%	-4.0
Oc1ccc(N2CCN(Cc3ccc(OCCCN4CCCCC4)cc3)CC2)cc1	-3.6%	-3.8%	-8.2%	2.5
SMILES	Rango complex inh	miR-21 reporter	Rango dissoc inh	GLA inh pH 4.5
CC(=O)N(Cc1ccco1)C1(C(=O)NC2CCCC2)CCCCC1	-4.5%	-0.2%	-0.6%	-2.5
Cc1ccsc1C(=O)Nc1nc2ccccc2[nH]1	2.5%	6.4%	-2.1%	-13.7
CCCCn1c(O)c(/C=C2\C=NN=C2c2ccccc2)sc1=S	5.1%	-7.0%	28.2%	4.5
COc1ccc(CCN(Cc2cc3ccc(C)cc3n3nnnc23)C(C)=O)cc1OC	2.6%	-10.2%	-0.7%	-5.2[21.1 µM]
COc1ccc(C(=O)Nc2sc3c(c2C#N)CCN(C(C)=O)C3)cc1	?	22.2%	?	-20.9
CC/C(=N/O)C(=O)c1ccc(Br)cc1	0.7%	-12.4%	1.3%	6.4
Cc1ccc(-c2cc(C(=O)n3cnc4ccccc43)c3ccccc3n2)cc1C	6.2%	11.2%	11.6%	-20.0
COc1ccc2sc(N3C(=O)CC(Cc4cccc(C)c4)C3=O)nc2c1 (centres undefined)	1.4%	-2.8%	6.9%	-1.9
COc1ccc(N2CCN(C(=O)CCC(=O)N3Cc4ccccc4Oc4ncccc43)CC2)cc1	-0.6%	7.0%	?	·
CN1CCN(c2ccccc2NC(=O)c2ccc(OCc3ccccc3)cc2)CC1	-4.0%	2.9%	?	-7.0
CCOc1ccc(CC(C(N)=O)C(N)=O)cc1CN(C)C	-0.3%	-10.7%	-8.8%	-2.1
CC1CCCCC12NC(=S)N(c1ccccc1)N2 (centres undefined)	-4.0%	5.2%	12.8%	3.9
COc1ccc(C2NC(=O)NC(C)=C2C(=O)OC2CCC(C)CC2)cc1 (centres undefined)	-5.2%	0.1%	6.7%	·
COc1ccc(C)cc1NC(=O)C(OC(=O)c1cnccn1)c1ccccc1 (centres undefined)	2.2%	·	-23.1%	·
COC(=O)C1=C(C)N(Cc2ccccc2)C(=NCc2ccccc2)N[C@H]1c1ccccc1	3.4%	21.4%	-0.3%	·
COc1ccc(NC(=O)CSc2nncc(=O)n2N)cc1OC	?	8.2%	20.8%	·
O=C(CN1CCN(c2ccccc2F)CC1)Nc1nnc(C(F)(F)F)s1	0.0%	-1.7%	-8.3%	3.1
CCN(CC)S(=O)(=O)c1ccc(OC)c(NC(=O)c2cc([N+](=O)[O-])ccc2Cl)c1	0.9%	1.0%	7.0%	-25.2
COc1ccc(NC(=O)CN(C)S(=O)(=O)c2cnc[nH]2)cc1Cl	0.7%	-13.5%&-10.9%	6.5%	·
COc1ccc2oc(C(=O)NCc3ccco3)c(C)c2c1	1.1%	-31.9%	-5.4%	·
Cc1cccc(NS(=O)(=O)c2ccc([N+](=O)[O-])cc2)n1	0.9%	-0.3%	-2.2%	·
Cc1ccc(NC(=S)/N=C(\N)Nc2nc(C)c3ccccc3n2)cc1C	1.1%	15.5%	27.5%	0.8
Cc1cccc(NC(=O)C2(C)CC3c4ccccc4C2c2ccccc23)c1 (centres undefined)	2.7%	0.3%	0.6%	3.3
O=[N+]([O-])c1ccc(S(=O)(=O)N2CCN(c3ccc(N4CCOCC4)nn3)CC2)cc1	0.0%	·	0.6%	·
Cc1ccc(S(=O)(=O)N2CCC(C(=O)Nc3nnc(C)s3)CC2)cc1	-1.7%	-0.4%	-2.3%	·
CCC(=O)N/N=C/c1ccc(-c2ccc([N+](=O)[O-])cc2)o1	?	1.3%	?	-3.5
CC(C)C[C@@H](CNCC(=O)[C@H](Cc1ccccc1)NC(=O)c1[nH]cnc1C(=O)N[C@@H](C)CN)NC(=O)c1nc[nH]c1C(=O)N[C@@H](C)C(=O)O	-3.3%	·	-12.2%	·
O=C(c1cccnc1NCc1ccc(F)cc1)N1CCOCC1	-4.2%	0.6%	-7.0%	-2.6
CCOc1ccc(S(=O)(=O)N2CCC(C(=O)NC3CC3)CC2)cc1C	2.5%	0.3%	1.7%	·
CCOC(=O)Cc1ccc2sc(-c3ccccc3)nc2c1	3.9%	-69.6%	2.4%	-10.2
